PrP 5UTR inh: inhibition of PrP 5' UTR reporter expression; AID 488862; 340,000 tested, 0.35% active; cell-based PrP 5' UTR mRNA reporter, plate reader; inhibition, % (no concentration beside the values);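 active = every replicate at 50% or more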;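 also: 0 = median of the neutral control wells; tested in H4 reporter cells; numbers are from one replicate; inactives centre near -14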
Sa RN4220 lethal: S. aureus RN4220 growth inhibition; 330,000 tested, 0.33% active; OD600, 16 h; inhibition, % (concentration not given with the values); AID 1259311;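 active = z-score of -3 or lower and OD600 up to 0.18 on both plates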;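 also: plate controls were untreated cells for no effect and reference antibiotic for full effect; stock transfer was 100 nL into about 80 µL; one replicate is shown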
Mtb hypoxia rep: Mtb hypoxia fluorescent reporter inhibition; M. tuberculosis hypoxia-regulated fluorescent reporter, fluorescence; fluorescence inhibition, % (no concentration beside the values); 300,000 tested, 0.1% active; AID 1159583;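 active = 35 to 45% if threefold the growth effect, above 45% if 1.5-fold the growth effect; inactive = the rest, general growth blockers included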;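 also: wells of about 50 µL received 100 nL stock; 0% = vehicle wells and 100% = reference inhibitor wells; whole bacteria with a GFP reporter of the hypoxia response; strong numbers were not always called active; many hits fall short of the cut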
BJeLR lethal: BJeLR cell viability loss | BJeLR (HRASV12) viability, CellTiter-Glo ATP luminescence, 48 h; reference of the scale not given here | inhibition, % (concentration not given with the values) | 300,000 tested, 0.17% active;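 active = replicate mean above 50%; inconclusive = above 50% but judged a plate artefact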;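 also: 50 nL library stock added to about 25 µL; numbers are from one replicate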
Sa ugtP lethal: compounds lethal to S. aureus RN4220 ugtP deletion mutant; growth inhibition, % (no concentration beside the values); 330,000 tested, 0.54% active; OD600 growth, 16 h; some inactives read as strong as hits;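 active = z-score under -3 and OD600 up to 0.15 on both plates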;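 also: plate controls were untreated wells for no effect and antibiotic for full effect; wells of about 80 µL received 100 nL stock; the first replicate is given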
Bead autofluor: compound fluorescence in toxin protease inhibitor counterscreen; compound autofluorescence counterscreen, microsphere flow cytometry; active compounds read high; fluorescence intensity (test concentration not listed); 360,000 tested, 3.1% active;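 active = at least 3 SD above the mean of all compounds, about 16000 in these data; inconclusive = too few beads counted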;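 also: 100 nL of 1 mM stock went into each well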
Mtb hypoxia rep growth: further read-out of Mtb hypoxia rep, marked with its call; growth inhibition, %; measured here: M. tuberculosis growth (absorbance);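 0% = vehicle and 100% = reference antibiotic; read after six days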
Numbers without * were called inactive; u = inconclusive; x = not tested or not shown.

SMILES	PrP 5UTR inh	Sa RN4220 lethal	Mtb hypoxia rep	Mtb hypoxia rep growth	BJeLR lethal	Sa ugtP lethal	Bead autofluor
Cc1ccc(CCNC(=O)C2CCN(S(=O)(=O)N3CCC4(CC3)OCCO4)CC2)cc1	-20.8	4.6	18.5	5.2	x	10.6	13177
CCCc1cc(=O)oc2c(C)c(OS(C)(=O)=O)ccc12	-11.9	4.4	x	x	3.2	0.9	3044
CN(C)C(CNC(=O)c1cccc(OC(F)F)c1)c1ccco1 (stereo not drawn)	-21.6	2.6	6.4	3.6	9.1	3.2	2578
O=C(COc1ccc(S(=O)(=O)N2CCCCC2)cc1Cl)N1CCCC1	-2.4	2.0	-3.6	14.6	-4.0	0.4	3989
Cc1ccc(NC(=O)Cn2cccc2C2=NC(c3ccccc3)CO2)cc1C (stereo not drawn)	5.9	-1.7	6.7	6.5	5.0	-10.0	9533
CCN(CC)C(=O)Cn1cc(C(=O)C(=O)NCCCN2CCCCC2)c2ccccc21	-7.5	0.5	2.4	-5.8	0.9	2.1	6930
Cc1ccc2nc(SCC(=O)Nc3cc(C(F)(F)F)ccc3N3CCOCC3)[nH]c2c1	31.7	3.7	2.6	-2.8	10.3	-20.0	2508
N#CCCN(C(=S)Nc1ccc(S(=O)(=O)N2CCOCC2)cc1)c1ccccc1F	-34.7	-0.4	4.1	2.9	x	3.5	5913
CCCc1cc(=O)oc2c(C)c(OC(C)C(=O)NCc3ccccn3)ccc12 (stereo not drawn)	-32.2	4.4	11.5	5.9	2.7	5.1	6666
O=C(Cn1nnc(-c2ccccc2-n2cnnn2)n1)NCc1ccccc1	-15.0	-4.4	-11.3	2.9	1.8	-3.1	9259
Cc1cc2oc(=O)cc(CN3CCC(C)CC3)c2cc1Cl	-28.9	-0.1	12.9	7.3	1.6	-4.9	3913
COCCNC(=O)c1snc2ccc(Cl)cc12	-6.7	8.5	-1.4	1.0	-1.5	15.6	11461
Cc1cc(Cl)ccc1OCCCC(=O)N1CCN(C(=O)c2ccco2)CC1	-4.8	6.5	-0.2	0.6	-7.0	-0.2	21790*
CCOC(=O)c1c(S(=O)(=O)NCC(=O)Nc2ccc(F)cc2F)c(C)n(C)c1C	-3.2	3.1	13.4	4.8	-11.7	8.2	4364
Cc1occc1-c1nnc(SCC(=O)NC2CCCCC2)o1	-28.9	3.4	7.9	2.5	x	6.7	3787
S=c1[nH]nc(-c2cccc(Br)c2)o1	-14.9	13.9	20.7	7.3	-5.1	-11.3	4395
Nc1ncnc2c1ncn2[C@@H]1O[C@H](CNC(=O)[C@@H]2CCCN2S(=O)(=O)c2ccc(F)cc2)[C@@H](O)[C@H]1O	-5.0	2.5	-6.3	1.5	x	8.6	4327
COc1ccc(N2CCN(C(=O)CNC(=O)c3ccc(C(C)(C)C)cc3)CC2)cc1	-2.8	0.5	x	x	8.8	0.4	2073
COc1ccc(CCNC(=O)COc2cccc(-n3cnnn3)c2)cc1	-17.8	1.3	5.7	-2.5	x	11.1	5385
Cc1cc(OC(C)C(=O)NC(Cc2c[nH]c3ccc(O)cc23)C(=O)O)c2c(C)cc(=O)oc2c1 (stereo not drawn)	-37.1	6.3	x	x	-1.4	-5.0	5562
O=C1C(Cc2c[nH]c3ccccc23)NC(=S)N1Cc1ccccc1 (stereo not drawn)	-13.4	1.6	3.8	1.0	1.8	-10.6	4489
O=C(NN=C1CCCc2ccccc21)c1ccc([N+](=O)[O-])cc1	x	5.8	23.8	22.1	x	-1.8	x
O=C(NCc1cccnc1)/C(=C\c1ccc(-c2cccc(Cl)c2)o1)S(=O)(=O)c1ccccc1	-5.3	8.8	2.3	10.2	-4.9	-8.2	7557
COc1ccc(-n2nc([N+](=O)[O-])c(=NCCc3ccc(OC)c(OC)c3)n2O)cc1	-45.2	32.7	4.2	0.6	-0.3	31.0	7858
CCn1cnc2cc(NC(=O)c3cccs3)ccc21	-85.8	8.9	-10.2	-5.9	-19.4	6.6	3181

Compound profiles, as listed above. Order of values: PrP 5UTR inh, Sa RN4220 lethal, Mtb hypoxia rep, Mtb hypoxia rep growth, BJeLR lethal, Sa ugtP lethal, Bead autofluor
CCN(CC)C(=O)Cn1cc(C(=O)C(=O)NCCCN2CCCCC2)c2ccccc21 is listed with -7.5, 0.5, 2.4, -5.8, 0.9, 2.1, 6930
COc1ccc(CCNC(=O)COc2cccc(-n3cnnn3)c2)cc1 is listed with -17.8, 1.3, 5.7, -2.5, x, 11.1, 5385
O=C(NN=C1CCCc2ccccc21)c1ccc([N+](=O)[O-])cc1 is listed with x, 5.8, 23.8, 22.1, x, -1.8, x

Further compounds.
SMILES	PrP 5UTR inh	Sa RN4220 lethal	Mtb hypoxia rep	Mtb hypoxia rep growth	BJeLR lethal	Sa ugtP lethal	Bead autofluor
CCOC(=O)CN1C(=O)CSc2ccccc21	-14.4	1.6	6.1	3.2	4.0	0.8	24381*
Cc1ccc(NC(=S)NNC(=O)Nc2ccccc2)cc1	-22.1	x	x	x	15.3	x	4047
CN(C)c1ccc(C(=O)OCC(=O)c2ccc[nH]2)cc1	-74.6	0.4	6.1	7.0	x	-6.4	2964
CCOC(=O)/C(=N/Nc1ccc(Br)cc1)N1CC(C)OC(C)C1 (stereo not drawn)	-15.9	4.3	9.5	-4.5	x	10.2	3052
O=C(c1cccs1)N1CCN(c2ccc([N+](=O)[O-])cc2F)CC1	-12.4	5.4	-3.5	3.2	8.0	4.6	3384
Nc1nnc(SCC(=O)N2CCN(Cc3ccccc3)CC2)s1	-14.3	1.3	16.9	-1.5	-1.8	11.9	16406*
Cc1ccccc1CSc1nc2ccccc2c(=O)n1C	-19.2	-2.2	9.4	9.8	x	4.1	6250
COc1ccc(OC)c(/C=C/c2[nH]c(=O)[nH]c(=O)c2[N+](=O)[O-])c1	-17.1	2.4	22.4	14.2	-11.0	0.7	4183
Cc1cc([N+](=O)[O-])ccc1NC(=O)C=Cc1cccs1	x	5.9	3.7	2.5	x	-2.8	x
CCOc1c(N2CCCCC2)c(=O)c1=O	-15.1	5.0	x	x	5.3	8.0	4664
Cc1ccc(NS(=O)(=O)c2cc(C(=O)N3CCN(C)CC3)ccc2C)cc1	-32.5	4.9	7.6	4.9	9.2	6.3	3243
CCOc1ccc(CN(C)C(C)C(=O)Nc2ccc([N+](=O)[O-])cc2Cl)cc1OC (stereo not drawn)	-9.5	8.8	x	x	-3.6	10.1	2051
Cc1cc(N2CCOCC2)ccc1/C=C\[N+](=O)[O-]	-22.2	x	x	x	-1.1	x	3283
CCOC(=O)N1CCN(C(=O)C(C)N(c2ccccc2)S(C)(=O)=O)CC1 (stereo not drawn)	3.7	7.4	12.8	3.3	4.6	9.0	4406
O=C1/C(=C/c2ccccn2)SC(=S)N1c1ccc(O)cc1	-5.7	1.0	18.4	7.8	-6.7	-3.8	4969
Cc1nc(CN(C)Cc2nc(Cc3cccc(F)c3)no2)cs1	-18.8	3.8	-2.1	-2.6	-9.1	6.1	4240
Cc1ccc2c(c1)CC1(CN2C)C(=O)NC(=O)N(CCc2ccccc2)C1=O (stereo not drawn)	-24.3	5.3	11.4	4.2	1.2	-3.0	u
Cc1ccc(-c2c(C#N)c(N)nc3c2CCCCC3)cc1	16.8	-2.8	-4.4	7.0	1.7	4.9	9675
COc1ccc(CNS(=O)(=O)c2ccc3c(c2)C(C)(C)C(=O)N3C)cc1	2.9	1.2	0.0	-7.4	-12.8	-2.6	5781
O=CNc1ccc(OC(=O)c2cncc(Br)c2)cc1	-21.7	4.8	8.8	1.6	0.6	2.0	4156
O=C(NN=Cc1cc(Cl)cc([N+](=O)[O-])c1O)NC12CC3CC(CC(C3)C1)C2	x	-6.8	16.7	7.5	x	-29.4	x
Cc1ccc2c(CN3C(=O)NC(C)(c4ccc5c(c4)OCO5)C3=O)cc(=O)oc2c1 (stereo not drawn)	-10.8	2.3	2.5	4.6	7.6	2.0	15279
Cc1cc(CN(C)C(=O)c2ccc(OC3CCN(CCc4ccccc4)CC3)cc2)on1	-18.5	8.4	1.8	3.9	5.0	6.3	5979
CCOC(=O)Cc1csc(NC(=O)CN2CCN(c3ccccc3)CC2)n1	-14.1	0.9	-3.7	9.0	-4.6	7.4	3887
Nc1ncnc(Nc2ccccc2C(F)(F)F)n1	-0.6	3.0	x	x	x	-2.5	2652
Next compounds follow.
SMILES	PrP 5UTR inh	Sa RN4220 lethal	Mtb hypoxia rep	Mtb hypoxia rep growth	BJeLR lethal	Sa ugtP lethal	Bead autofluor
Cn1c(SCC(=O)NN=Cc2ccc([N+](=O)[O-])s2)nnc1-c1ccccc1	x	94.9*	7.2	-8.1	x	100.2*	x
CCOC(=O)N1CCN(C(=S)Nc2cc(OC)c(OC)cc2C(=O)OC)CC1	-14.3	0.8	5.4	5.5	-1.2	3.7	11101
Cc1ccccc1OCc1nnc(SCc2cc(=O)[nH]c3ccccc23)o1	-9.8	7.5	3.8	0.1	16.8	12.1	8118
CC12CC(c3ccccc3O1)C(C(=O)NCc1ccccc1)C(=O)N2 (stereo not drawn)	-20.2	1.6	6.1	-2.0	-7.3	3.3	5509
COc1cccc(NC(=S)N2CCN(C/C=C/c3ccccc3)CC2)c1	5.6	-0.2	-2.4	0.1	5.6	-5.3	22410*
Cc1ccc2c(c1)c(/C=C/c1cc[n+](C)cc1)c(C)n2C	2.4	x	x	x	10.6	x	20045*
O=C(COC(=O)C1C2CC3OC(=O)C1C3C2)Nc1cccc(Cl)c1 (stereo not drawn)	-6.4	0.0	-10.3	-1.8	8.4	5.2	3729
C/C(=N\NC(=O)c1ccc(Cl)cc1)c1ccc(N2CCOCC2)cc1	-12.6	x	x	x	-12.7	x	2431
O=C(CCN1C(=O)C2C3C=CC(C3)C2C1=O)NCCN1CCCc2ccccc21 (stereo not drawn)	-1.8	1.7	-2.1	-1.7	-6.5	-1.4	4441
CC(C)c1ccc(NC(=O)[C@@H](NC(=O)N2CC(=O)Nc3ccccc32)C(C)C)cc1	-14.6	0.9	6.5	-1.8	2.6	5.1	6220
Cc1ccc(S(=O)(=O)N(C)C)cc1NC(=S)N1CCN(Cc2ccc3c(c2)OCO3)CC1	-22.9	8.4	12.7	-6.4	7.9	1.8	4533
O=C(CCc1nc(-c2ccccc2)no1)NC1CCCCCC1	-21.3	-5.0	4.1	-1.7	x	0.7	4119
O=C(CCNC(=O)Cn1ccc2ccccc2c1=O)NCCCN1CCOCC1	-7.9	5.8	3.8	9.2	-6.4	16.6	6656
O=C1NC(=O)N(CCc2ccc(F)cc2)C(=O)/C1=C/c1cccs1	-19.3	5.3	-4.1	2.9	5.1	1.3	3286
COc1ccc2cc(CN(CC3CCCO3)C(=O)Nc3ccccc3OC)c(=O)[nH]c2c1 (stereo not drawn)	-46.9	0.0	-7.1	-2.8	7.5	-5.1	4432
CCCCn1c(N)c(N(CC(C)C)C(=O)c2cc(-c3ccco3)nc3ccccc23)c(=O)[nH]c1=O	-19.0	-1.9	-4.6	3.4	1.6	-0.3	u
Cc1cc(C(=O)OCC(=O)c2ccccc2)c2ccccc2n1	-19.4	1.5	6.6	-0.8	0.9	3.9	3464
COc1ccc(-c2noc(CCC(=O)NCC3CCN(Cc4cccc(C)c4)CC3)n2)cc1	-8.3	-4.8	x	x	0.9	2.9	3392
CC(C)(C)c1ccc(C(CC(=O)O)NC(=O)Cc2ccccc2)cc1 (stereo not drawn)	-2.1	4.0	-2.2	-4.4	0.8	0.1	3745
CC(=O)N1CN2CN(C(C)=O)CC(C(=O)c3ccccc3)(C2)C1	-17.7	1.7	-0.2	2.9	-0.6	0.5	3846
CC(=O)c1cccc(NS(=O)(=O)c2ccc(NC(=O)N3CCCCC3)cc2)c1	-9.0	3.6	13.3	13.3	15.3	-5.7	5366
O=c1cc(Cl)[nH]c(=O)n1CCNc1ncc(C(F)(F)F)cc1Cl	-22.7	30.0	x	x	0.8	31.5	2752
O=C(c1cnn2c(C(F)(F)F)cc(-c3ccc(Br)cc3)nc12)N1CCOCC1	-48.6	2.1	x	x	-7.4	0.0	2901
O=C(Nc1ccc(Cl)cc1)c1ccco1	-36.9	5.4	7.5	9.4	-8.4	18.9	3902
Cc1ccc(/C=c2\sc3nc(-c4cccs4)nn3c2=O)o1	-64.0	x	x	x	-2.0	x	20038*
COCCCNC(=O)Cn1cc(C(=O)C2CC2)c2ccccc21	-13.2	-2.7	3.0	-1.5	-12.5	0.0	8981
Cc1ccc(S(=O)(=O)NCC(=O)OCC(=O)N2C(C)CCCC2C)cc1 (stereo not drawn)	-2.0	2.4	1.3	7.5	x	1.8	3044
CCOC(=O)c1c(NC(=O)CN2CCC(C)CC2)sc(C)c1C	-14.9	54.8	16.0	2.9	7.4	1.3	4451

Assay outcomes (PubChem BioAssay)
